Screening results (PubChem BioAssay)
HPGD inh = inhibitors of human 15-hydroxyprostaglandin dehydrogenase (HPGD); purified HPGD, NADH fluorescence kinetic, PGE2 substrate; Potency, µM, for inactives: at the top dose activity change, negative = inhibition, most hits filed as inhibitors; actives 4.3% (n = 150,000); AID 894; active = well fitted inhibition curve with a large enough effect (not every such curve was filed as active); inconclusive = small, poorly fitted or top-dose-only effect, or another doubt; inactive = no such curve, though single readings can be large or run the other way;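 also: top concentration of the series not given in the record; plate controls included wells without enzyme; inactives centre near -10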
Target sequence (P15428 whole entry, looked up): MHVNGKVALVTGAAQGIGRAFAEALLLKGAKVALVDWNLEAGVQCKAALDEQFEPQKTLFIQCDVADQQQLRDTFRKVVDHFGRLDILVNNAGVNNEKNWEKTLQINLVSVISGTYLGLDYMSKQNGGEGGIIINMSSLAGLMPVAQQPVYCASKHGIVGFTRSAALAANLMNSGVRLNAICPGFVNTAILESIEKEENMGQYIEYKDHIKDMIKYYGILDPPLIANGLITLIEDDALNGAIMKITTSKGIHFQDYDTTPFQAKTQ
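20 nM HPGD preincubated 15 min at room temperature with compound in 50 mM Tris-HCl pH 8, 0.01% Tween 20. Started with 1 mM NAD+ and 30 uM prostaglandin E2; NADH fluorescence (360/450 nm) read 5 times over 30-s intervals, last minus first.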
Starred values were filed as active, the others as inactive; ? = inconclusive. % is scaled to controls: 0 for no effect and ±100 for the full control effect; potency is read from the fitted curve at half-maximal effect. Not all compounds are listed; rates above refer to the full screens.

SMILES | HPGD inh
Cc1ccc(OCC(=O)O/N=C(\N)Cc2ccc(Cl)cc2)cc1 | -4%
CCOC(=O)C(Cc1ccccc1)NS(=O)(=O)c1ccc(NC(C)=O)cc1 (centres undefined) | -15%
CCC(=O)N1CCc2cc(Br)cc(S(=O)(=O)NCCN3CCCCC3CC)c21 (centres undefined) | 1%
O=C(c1ccco1)N1CCN(C(=O)c2nn3cccnc3c2Cl)CC1 | -11%
COc1ccc(OC)c(NC(=O)C2CCN(S(=O)(=O)c3c(C)noc3C)CC2)c1 | -9%
COCCNC(=O)CSc1nc2cc(OC)c(OC)cc2c(=O)n1Cc1ccco1 | -14%
O=C(CCCOc1ccccc1)NCc1ccco1 | 13µM*
Cn1c(CN2CCCCC2)nc2cc(NC(=O)c3ccccc3Cl)ccc21 | -16%
CS(=O)(=O)Nc1ccc(C(=O)Nc2ccccc2C(=O)N2CCCC2)cc1 | -6%
COc1ccccc1N1CCN(C(=O)c2cc(-c3ccc4c(c3)OCO4)on2)CC1 | -29%
Nc1nc2nc(-c3ccc(Cl)cc3)cc(C(F)(F)F)n2n1 | ?
O=C(Nc1ccc(C(=O)Nc2ccc(C(=O)Nc3ccc(S(=O)(=O)O)c4cc(S(=O)(=O)O)cc(S(=O)(=O)O)c34)cc2)cc1)Nc1ccc(C(=O)Nc2ccc(C(=O)Nc3ccc(S(=O)(=O)O)c4cc(S(=O)(=O)O)cc(S(=O)(=O)O)c34)cc2)cc1 | -21%
CC(C)(C)C(=O)c1sc(Nc2ccccc2)nc1N | ?
CCCCCCc1nc2c(=O)[nH]c3ccccc3c2o1 | -12%
O=Cc1ccccc1Cl | -7%
COc1ccccc1N1CCN(C(=O)CCn2c(=O)[nH]c3ccccc3c2=O)CC1 | -6%
Cc1nn(C)c(C)c1C1C(C#N)=C(N)OC2=C1C(=O)CCC2 (centres undefined) | -9%
COc1ccc(CCNC(=O)c2cc(=O)[nH]c3ccc(Br)cc23)cc1OC | -8%
COC(=O)CSc1nc(N2CCCCC2)c2c(c1C#N)CCCC2 | ?
COc1cccc(NC2=NC3(CCCCC3)N=C(N)N2)c1 | -7%
Cn1c(OCc2ccc3c(c2)OCO3)nc2c1c(=O)n(Cc1ccc(Cl)c(Cl)c1)c(=O)n2C | -5%
Cc1cccc(NC(=S)N(CCc2nc3cc(C)c(C)cc3[nH]2)Cc2cccnc2)c1 | -5%
Cc1cccc(OCC(=O)Nc2ccccc2N2CCCCC2)c1 | -1%
O=C1C(Cl)=C(Nc2ccccc2)C(=O)c2ccccc21 | -3%
CC(C)C(=O)Nc1cccc(S(=O)(=O)c2cccc(NC(=O)C(C)C)c2)c1 | -24%

(listing goes on)
SMILES | HPGD inh
ON=C1CCCCC1 | -2%
CCOC(=O)c1cc2c(ccn2C)n1Cc1ccccc1C | -19%
O=C(CNC(=O)c1ccccc1)N/N=C/c1ccc([N+](=O)[O-])o1 | -12%
O=C(Nc1cnccn1)c1cccc(C(F)(F)F)c1 | -7%
CC(OC(=O)CCc1nc2ccccc2c(=O)[nH]1)C(=O)c1ccc(Br)cc1 (centres undefined) | -16%
c1ccc(Nc2cc(-c3ccccc3)nc3ncnn23)cc1 | -26%
CCOP(=O)(OCC)C(NC(=O)Nc1ccc(Cl)cc1)C(N)=O (centres undefined) | -3%
CCOc1cc2[nH]c(=O)n(CCc3ccc(OC)c(OC)c3)c(=O)c2cc1OCC | -7%
CCOC(=O)C1=C(C)Nc2ncnn2C1c1cc(Br)ccc1F (centres undefined) | -16%
O=C(NCCCN1CCCC1=O)c1ccc2c(c1)NC(=O)C(N1CCOCC1)S2 (centres undefined) | -13%
O=C(NCCc1ccncc1)Nc1ccccc1 | -15%
Nc1nc(CN2CCN(Cc3ccccc3)CC2)nc(Nc2ccccc2)n1 | -7%
Cc1nn(Cc2ccccc2Cl)c(Cl)c1/C=C/C(=O)OCC(=O)NC(N)=O | -11%
O=C(c1ccccc1)N1CC(COc2ccccc2)OC(c2cccnc2)O1 (centres undefined) | -27%
O=C(Nc1nc(-c2cccs2)c(C(=O)C(F)(F)F)s1)c1ccccc1 | -19%
COc1ccccc1-c1c(C)c(C)nc(N)c1C#N | ?
CC(=O)Oc1c2occc2cc2ccc(=O)oc12 | -15%
Cc1ccc(Cl)cc1Nc1nc(-c2sc(NC(=O)c3ccccc3)nc2C)cs1 | ?
C=CCO/N=C(/C)c1c(O)c(CC)c(-c2ccccc2)n(-c2ccccc2)c1=O | -10%
Cc1[nH]nc(Nc2ccccc2)c1[N+](=O)[O-] | -28%
CC1(c2ccccc2)NC(=S)N2C1NC(=S)N2c1ccccc1 (centres undefined) | -2%
COC(=O)CSc1nc2sc(C)c(C)c2c(=O)n1C | -1%
CCOC(=O)c1cc(NC(=O)COc2ccc([N+](=O)[O-])cc2)cc(C(=O)OCC)c1 | -4%
CN(C)c1ccc(NC2=C(Cl)C(=O)c3ccccc3C2=O)cc1 | 14µM*
NC[C@](O)(CS(=O)(=O)O)c1ccc(Cl)cc1 | -10%

Next part
SMILES | HPGD inh
Cn1c(=O)c2c(nc(NCCCO)n2Cc2cccc(C(F)(F)F)c2)n(C)c1=O | -7%
Cc1ccc(Cn2cccc2C2=NC(C)CO2)cc1 (centres undefined) | -7%
CCn1c(SCC(N)=O)nnc1-c1ccc2[nH]c(C)c(C)c2c1 | -13%
CC(=O)c1cccc(NC(=O)c2ccc(N(Cc3ccccc3)S(C)(=O)=O)cc2)c1 | -11%
COc1cccc(N(C(=O)CNC(=O)c2ccco2)C(C(=O)NC2CCCC2)c2ccncc2)c1 (centres undefined) | -6%
Cc1cccc(N(C)C(=O)c2cc3cc4ccc(C)cc4nc3o2)c1 | -29%
Cc1ccc(-c2noc(CN(C(=O)C34CC5CC(CC(C5)C3)C4)C(C)C)n2)cc1 | -6%
Cc1nc2c3ccccc3n(CCN3CCCCC3)c2s1 | -6%
CCc1nnc(SCC(=O)Nc2ccccc2)nc1CC | -26%
O=C(Nc1nnc(SCC(=O)N2CCCCC2)s1)c1cccs1 | 14µM*
C[C@@H]1C(c2ccc(F)cc2)=NN(c2ccc(Br)cc2)[C@H]1C(=O)N1CCOC1=O | ?
COC(=O)c1nnn(CC(=O)Nc2cccc(Cl)c2C)c1C(=O)OC | 4%
CCC(C(=O)c1ccc2ncccc2c1)c1ccccc1 (centres undefined) | -16%
FC(F)(F)c1ccccc1-c1nc(N2CCNCC2)c2ccccc2n1 | -12%
CCC(=O)c1ccc2c(c1)N(CCCN(C)C)c1ccccc1S2 | -5%
CCOc1ccc(NC(=O)COc2ccc(C(=O)NC3CCCc4ccccc43)cc2OC)cc1 (centres undefined) | -13%
CCCCOC(=O)c1ccc(NC(=O)/C=C/c2cccs2)cc1 | -25%
CC(=O)C1=C(O)C(=O)N(c2ccc(S(N)(=O)=O)cc2)C1c1ccccc1F (centres undefined) | ?
Cc1ccccc1C(=O)NC(CC(C)C)C(=O)OCc1cc(=O)n2cc(Br)ccc2n1 (centres undefined) | -20%
Cc1ccc(S(=O)(=O)NC2=NCN(Cc3cccnc3)CN2)cc1 | -4%
Clc1ccccc1CSC1=NCCCN1 | -8%
Cc1ccc(C(=O)OC/C(O)=C(\C#N)c2nc3ccccc3[nH]2)cc1S(=O)(=O)N1CCOCC1 | -22%
C/C(CCc1ccc2c(c1)OCO2)=N\NC(=O)c1ccccc1 | -6%
Cc1c(C(=O)Nc2ccncc2)oc2c1C(=O)CC(C)(C)C2 | 1%
COc1ccc(-n2cnc3cc(NS(=O)(=O)c4ccccc4)ccc32)cc1 | 11µM*

Going on with the list:
SMILES | HPGD inh
CC(C)/C(=N/[N+](C)(C)C)c1ccccc1 | -5%
COc1ccc(C2CC(c3cccc(C)c3)n3ncnc3N2)cc1 (centres undefined) | -2%
CC(C)(C)OC(=O)N1CCC(C(=O)N2CCCCCC2)CC1 | 14µM*
O=C(Nc1ccc(N2CCCCC2)c(C(=O)O)c1)c1ccco1 | 2%
Nc1scc(-c2ccncc2)c1Cl | -24%
CN(C)C(=O)c1c2c(nc3ccccc13)-c1ccccc1CC2 | -23%
O=C(CN1CCOCC1)Nc1ccccc1Cl | -11%
CCCCOc1ccc(C(=O)N2CCCC2)cc1 | 2.2µM*
Brc1c(CSc2nc3ccccc3o2)nc2ncccn12 | ?
O=C(NC(=S)NC1CCCC1)c1ccccc1Br | -5%
OC1(c2ccccc2F)CCN(Cc2nnc(-c3ccccc3)o2)CC1 | ?
Cc1ccc2c(Cl)c(C)c(N3CCCC3)nc2n1 | -5%
Cc1cccc(C(=O)Nc2nccs2)c1[N+](=O)[O-] | ?
CCCn1nc(C(=O)OCC(=O)c2ccc3c(c2)NC(=O)CO3)c2ccccc2c1=O | -13%
Cc1ccc2nc(C3CCN(CC(=O)N4CCCCCC4)CC3)[nH]c2c1 | -4%
CN(c1ccccc1)S(=O)(=O)c1ccc(C(=O)OCC(=O)NCc2ccco2)cc1 | ?
Cc1ccccc1-n1nc(C(=O)O)c(C)c(C#N)c1=O | -10%
CCOc1cc(N2CCOCC2)c(OCC)cc1NC(=O)C(NC(=O)c1ccco1)C(C)C (centres undefined) | -2%
CCN=C1SC(C(N)=O)CC(=O)N1CC (centres undefined) | 0%
Cc1cc(C)cc(-n2nnnc2SCC(=O)Nc2nc(-c3ccc(F)cc3)cs2)c1 | -7%
Cc1nnc(SCC(=O)Nc2nccs2)s1 | -4%
CCN(CC)c1ccc(NC(=O)CSc2nc3ccccc3c(=O)[nH]2)cc1 | -8%
N#CC1=C(SCC(=O)Nc2nccs2)NC(=O)CC1c1ccccc1 (centres undefined) | 0%
COc1ccc(CCNC(=O)c2cc(S(=O)(=O)N(C)c3ccccc3)ccc2Cl)cc1 | -7%
O=C1SC(SCc2ccccc2)=N/C1=C\c1ccco1 | -6%

Further structures
SMILES | HPGD inh
CC(=O)Nc1ccc(S(=O)(=O)Nc2ccc(N3CCOCC3)cc2)cc1 | -6%
COc1ccccc1C(=O)NC(=S)/C=C1/N(C)c2ccccc2C1(C)C | -30%
COc1ccc(N(C(=O)c2ccc(Br)o2)C2C=CS(=O)(=O)C2)cc1 (centres undefined) | -4%
COc1cc2c(C)nc(C)c(C#N)c2cc1OC | -20%
COc1cccc([C@@H]2Oc3ccc(Br)cc3C[C@H]2O)c1 | -27%
O=c1cc(NC2CCCCC2)c2ccccc2o1 | -19%
O=C(c1ccncc1)N1CCC2(CC1)CN(C(c1ccccc1)c1ccccc1)C2 | -11%
CC(=O)c1cccc(NC(=O)COc2cc3oc(=O)c(CC(C)O)c(C)c3cc2Cl)c1 (centres undefined) | ?
COc1ccc(NC(=O)CSCC(=O)N2c3ccccc3CCc3ccccc32)cc1 | 1%
CCOC(=O)CSc1nnc(-c2cccc(Br)c2)o1 | -20%
COC(=O)CNC(=O)COC(=O)c1cc(F)c(F)cc1Cl | 0%
O=C(Cc1cccs1)NCc1ccccc1 | 20µM*
CCC(=O)Nc1ccc2nc(C)n(CC(=O)Nc3ccccc3)c(=O)c2c1 | ?
O=C(Cn1cccc1C(=O)c1ccccc1)NCc1ccccc1 | -18%
CC(C)NC(=O)c1cnc(Sc2ncc(C(F)(F)F)cc2Cl)n1C | -15%
O=C(CN1C(=O)c2ccccc2S1(=O)=O)NC1CCCC1 | -8%
Cn1nnc2cc(C(=O)NC(C)(C)C)ccc21 | -6%
O=C(c1cccs1)N(CC1CCCO1)c1nc(-c2ccccc2)cs1 (centres undefined) | -12%
C=CCNc1nnc(SCC(=O)N2CCCCC2)c2ccccc12 | ?
COc1cccc(-c2nc(C(N)=O)c3[nH]c(=O)n(-c4ccccc4)c3n2)c1OC | -9%
CC(C)(C)c1ccc(C(=O)CSc2ncn[nH]2)cc1 | 25µM*
O=c1c(-c2ccccc2)nc2cnc(Oc3ccccc3)nc2n1C1CC1 | -28%
CCc1cc2cc(C)c(C)cc2nc1SCC(=O)NNC(=O)c1ccco1 | -14%
Cc1nn(Cc2ccccc2Cl)c(C)c1NC(=O)Cn1nc([N+](=O)[O-])c(Cl)c1C | -15%
CC(=O)Nc1ccc(S(=O)(=O)NNC(=O)c2ccc(C)cc2)cc1 | -3%
CNC(=O)C(=O)Nc1c(C)cc(C)cc1C | -7%

Structural class, the compounds so far containing an aryl methoxy group (19)
SMILES | HPGD inh
COc1ccc(OC)c(NC(=O)C2CCN(S(=O)(=O)c3c(C)noc3C)CC2)c1 | -9%
COCCNC(=O)CSc1nc2cc(OC)c(OC)cc2c(=O)n1Cc1ccco1 | -14%
COc1ccccc1N1CCN(C(=O)c2cc(-c3ccc4c(c3)OCO4)on2)CC1 | -29%
COc1ccccc1N1CCN(C(=O)CCn2c(=O)[nH]c3ccccc3c2=O)CC1 | -6%
COc1ccc(CCNC(=O)c2cc(=O)[nH]c3ccc(Br)cc23)cc1OC | -8%
COc1cccc(NC2=NC3(CCCCC3)N=C(N)N2)c1 | -7%
CCOc1cc2[nH]c(=O)n(CCc3ccc(OC)c(OC)c3)c(=O)c2cc1OCC | -7%
COc1ccccc1-c1c(C)c(C)nc(N)c1C#N | ?
COc1cccc(N(C(=O)CNC(=O)c2ccco2)C(C(=O)NC2CCCC2)c2ccncc2)c1 (centres undefined) | -6%
CCOc1ccc(NC(=O)COc2ccc(C(=O)NC3CCCc4ccccc43)cc2OC)cc1 (centres undefined) | -13%
COc1ccc(-n2cnc3cc(NS(=O)(=O)c4ccccc4)ccc32)cc1 | 11µM*
COc1ccc(C2CC(c3cccc(C)c3)n3ncnc3N2)cc1 (centres undefined) | -2%
COc1ccc(CCNC(=O)c2cc(S(=O)(=O)N(C)c3ccccc3)ccc2Cl)cc1 | -7%
COc1ccccc1C(=O)NC(=S)/C=C1/N(C)c2ccccc2C1(C)C | -30%
COc1ccc(N(C(=O)c2ccc(Br)o2)C2C=CS(=O)(=O)C2)cc1 (centres undefined) | -4%
COc1cc2c(C)nc(C)c(C#N)c2cc1OC | -20%
COc1cccc([C@@H]2Oc3ccc(Br)cc3C[C@H]2O)c1 | -27%
COc1ccc(NC(=O)CSCC(=O)N2c3ccccc3CCc3ccccc32)cc1 | 1%
COc1cccc(-c2nc(C(N)=O)c3[nH]c(=O)n(-c4ccccc4)c3n2)c1OC | -9%
